# Assay outcomes deposited in PubChem by National Center for Advancing Translational Sciences (NCATS).
# PINK1 expr mod: A Quantitative High throughput Screen to Identify Chemical Modulators of PINK1 Expression. Potency, µM (doses to about 76.6 µM), for inactives: at the top dose activation (PINK1 increase), hits mostly activators. PINK1 immunofluorescence, high-content cytometry, 24 h. 410,000 compounds, 0.2% hits; active = well fitted activation curve with a large enough effect; inconclusive = small, poorly fitted or top-dose-only effect; inactive = flat fitted curve, though single readings scatter; cell line not stated here;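 also: potency is read from the fitted curve at half-maximal effect; % of control where 0% means no effect; nearly all actives have a fitted effect of over 65% in size; a mitochondrial uncoupler was the plate control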
#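 A stable cell line was treated with compounds at 5 concentrations for 24 hours, with CCCP as control. PINK1 levels and mitochondrial localization were measured by immunofluorescence with mitochondrial, cell and nuclear markers after fixation, read by laser-scanning cytometry.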
# D2 agonist: Beta-Arrestin HTS for Positive Allosteric Modulators of the Human D2 Dopamine Receptor: Agonists; D(2) dopamine receptor (Homo sapiens), P14416; DiscoveRx PathHunter D2 beta-arrestin, luminescence, 90 min; 100% = 57 uM dopamine signal; activation, % (concentration not given with the values); 360,000 compounds, 0.084% hits; AID 624465, 2012; in the data active = activation above about 40%; inconclusive = about 15% to 40%; inactive = below about 15%; also: the text of the record calls up to 30% inactive
# Target sequence (P14416 whole entry, looked up): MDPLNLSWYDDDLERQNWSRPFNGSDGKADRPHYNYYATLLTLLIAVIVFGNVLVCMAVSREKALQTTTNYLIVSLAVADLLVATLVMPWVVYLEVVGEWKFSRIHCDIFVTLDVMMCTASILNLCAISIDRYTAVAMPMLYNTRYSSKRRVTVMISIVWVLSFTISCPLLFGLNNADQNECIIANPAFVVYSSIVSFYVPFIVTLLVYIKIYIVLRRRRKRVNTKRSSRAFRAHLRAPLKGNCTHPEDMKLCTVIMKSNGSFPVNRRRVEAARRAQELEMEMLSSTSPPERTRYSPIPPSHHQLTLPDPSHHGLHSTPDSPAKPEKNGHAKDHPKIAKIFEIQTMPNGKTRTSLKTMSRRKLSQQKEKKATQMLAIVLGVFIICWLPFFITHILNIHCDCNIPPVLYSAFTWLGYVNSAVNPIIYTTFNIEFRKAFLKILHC
#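 Agonist mode: compounds alone added to overnight-plated D2 PathHunter cells for 90 min at 37 C, with 57 uM final dopamine (EC100) defining full response. Beta-arrestin recruitment detected by chemiluminescent reagent, read after 1 h at ambient temperature.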
# TRPML1 blocker: qHTS for Inhibitors of the Human Mucolipin Transient Receptor Potential 1 (TRPML1); 390,000 compounds, 0.02% hits; Mucolipin-1 (Homo sapiens), Q9GZU1; activity change, negative = inhibition, % (concentration not given with the values); TRPML1-inducible cells, Ca2+ dye fluorescence, FDSS; hits give low values; inhibition of EC80 agonist-evoked calcium signal; AID 624415, 2012; in the data active means activity change below about -50%; inconclusive means about -30% to -50%; inactive means above about -30%;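 also: stimulus is agonist 54-4 at its EC80 concentration; % is scaled to controls: 0 for no effect and ±100 for the full control effect; the text of the record puts the active cut at -80%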
# Target sequence (Q9GZU1 whole entry, looked up): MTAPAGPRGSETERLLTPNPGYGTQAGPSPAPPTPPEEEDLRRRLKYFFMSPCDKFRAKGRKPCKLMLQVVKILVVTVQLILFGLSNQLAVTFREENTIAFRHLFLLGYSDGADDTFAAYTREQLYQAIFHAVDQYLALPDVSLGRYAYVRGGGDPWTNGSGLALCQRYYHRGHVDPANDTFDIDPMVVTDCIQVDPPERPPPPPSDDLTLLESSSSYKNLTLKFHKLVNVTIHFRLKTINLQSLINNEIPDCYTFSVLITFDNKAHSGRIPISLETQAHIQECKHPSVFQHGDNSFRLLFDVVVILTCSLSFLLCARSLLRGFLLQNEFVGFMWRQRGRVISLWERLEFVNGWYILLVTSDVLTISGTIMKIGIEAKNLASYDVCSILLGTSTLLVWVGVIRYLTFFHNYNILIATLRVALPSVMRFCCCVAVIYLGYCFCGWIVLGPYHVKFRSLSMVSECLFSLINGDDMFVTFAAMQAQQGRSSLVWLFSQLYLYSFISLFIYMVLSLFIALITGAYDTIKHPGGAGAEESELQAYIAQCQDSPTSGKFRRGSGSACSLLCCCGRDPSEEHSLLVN
#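 Calcium fluorescence in TRPML1-DL cells induced overnight with Tet: a 110 s read after compound pin addition, then a 110 s antagonist read after challenge with 54-4 at 4 uM final (EC80).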
# D2 PAM: Beta-Arrestin HTS for Positive Allosteric Modulators of the Human D2 Dopamine Receptor: Potentiators; DiscoveRx D2 beta-arrestin cells, luminescence, 90 min; 100% = 57 uM dopamine signal; potentiation, % (concentration not given with the values); 360,000 compounds, 0.23% hits; active = potentiation of 50% or more; inconclusive = 30% to 50%; inactive = 30% or less;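 also: tested on top of an EC20 dose of dopamine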
#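 PathHunter beta-arrestin assay in DiscoveRx D2 cells. Compounds were added with an EC20 of dopamine (50 nM final) for 90 min at 37 deg C. Luminescence was read 1 h after detection reagent, with 57 uM dopamine as the EC100 control.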
# TRPML1 ag: qHTS for Agonists of the Human Mucolipin Transient Receptor Potential 1 (TRPML1). 410,000 compounds, 0.12% hits. Mucolipin-1 (Homo sapiens), Q9GZU1. TRPML1-expressing cells, Ca2+ dye fluorescence, FDSS; host cell line not named in the record; reference of the full effect not given here. activation, % (no concentration beside the values); in the data active = activation above about 50%; inconclusive = about 30% to 50%; inactive = below about 30%; also: 0% is about no effect; the text of the record puts the active cut at 80%
#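 Tet-induced TRPML1-DL cells, 1,500 per well, cultured overnight, were loaded with a no-wash Ca2+ dye for 45–90 min. Calcium fluorescence was recorded on the FDSS for 110 s after compound addition, before the EC80 agonist (4 uM 54-4) was added.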
# Six1-Eya2 inh: qHTS Assay for Inhibitors of the Six1/Eya2 Interaction | AlphaScreen GST-Six1/His-Eya2 binding, biochemical; hits give low values; control for the full effect not named in the record | activity change, % (concentration not given with the values) | 360,000 compounds, 0.56% hits; in the data active = activity change below about -65%; inconclusive = about -30% to -65%; inactive = above about -30%; also: % is scaled to controls: 0 for no effect and ±100 for the full control effect
#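 Six1/Eya2 binding was read as AlphaScreen signal after compounds were pinned into GST-Six1 plus His-tagged Eya2 (5X stock 250/500 nM) in pH 8.0 Tris/NaCl/TCEP buffer, beads added, then incubated 1 h, 37 C, dark.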
# * marks the source's active call; other numbers are inactive results; ? = inconclusive; · = no result given; & = joins results of further samples; [ ] = another dose, or the depositor's remark.
SMILES,PINK1 expr mod,D2 agonist,TRPML1 blocker,D2 PAM,TRPML1 ag,Six1-Eya2 inh
CN(CCc1ccccc1)C(=O)c1ccc(NC(=O)Cc2ccc(NC(=O)C3CCN(C(=O)CCc4ccccc4)CC3)cc2)cc1,1.9%,-1.5,18.3,-3.1,-0.2,-0.2
CC1CCCN(C(=O)COC(=O)C2=COCCO2)C1 (configuration not stated),1.4%,5.4,-7.8,1.7,0.7,2.9
CCOc1ccc(C(=O)Nc2ccccc2C#N)cc1[N+](=O)[O-],7.4%,0.8,-6.9,-16.9,-0.3,-16.4
O=C(Nc1ccc(Cl)cc1Cl)c1cc(S(=O)(=O)N2CCC3(CC2)OCCO3)ccc1F,1.4%,·,-18.4,·,2.2,·
CCOc1ccccc1N1C(=O)c2ccc(C(=O)Nc3cccnc3)cc2C1=O,1.0%,-2.6,-0.5,9.1,-0.6,-3.9
CC1(C)N=C(c2ccc(Cl)cc2Cl)C(=O)N1,1.1%[38.3 µM],-2.6,79.4,-0.7,-0.2,1.9
O=C(COC(=O)c1ccc2c(c1)OCO2)Nc1cccc(F)c1,0.5%,7.2,-16.2,-0.8,-0.3,2.2
CCCCCC(=O)Nc1nc(C)c(-c2csc(Nc3ccc(Cl)cc3)n2)s1,2.2%,-0.5,8.9,-3.3,0.0,-4.6
CCOc1ncccc1C(=O)OCc1cn2cc(Cl)ccc2n1,9.6%,-3.2,-11.2,-21.1,2.5,-1.2
CCc1ccc(Nc2oc(C)cc(=O)c2C(C)=O)cc1,-0.8%,-4.4,-1.1,-13.1,-0.3,-0.4
COCCCNC(=O)Cn1cnc2sc(C)c(S(=O)(=O)N3CCN(c4ccccc4OC)CC3)c2c1=O,-0.8%&-0.2%,-3.2,-9.6&-16.7,-3.5,-0.3&-0.2,7.9
CCOc1ccc2nc(SC(C)C(N)=O)[nH]c2c1 (configuration not stated),-0.3%,-2.9,-3.6,7.9,-0.2,-2.5
O=C(COc1ccccc1)NC1=NCCS1,-0.8%,-3.4,-0.3,-5.7,-0.6,-0.2
Cn1c(SCC(=O)NNC(=O)c2ccc(Br)cc2)nnc1-c1cccnc1,-2.1%,2.3,-8.0,-8.8,0.5,2.3
Cc1ccc(NC(=S)c2ccncc2)c(C)c1,-1.3%,0.9,-2.7,-6.7,2.2,1.3
COc1cc2c(cc1[N+](=O)[O-])-c1ccc([N+](=O)[O-])cc1C2=NNC(N)=S,3.2%,12.5,3.5,6.8,-0.7,-72.5*
CCCCn1cnc2c(SCc3cccc(F)c3)nc(N)nc21,1.7%,4.2,-1.9,-1.1,0.2,-7.0
COc1ccccc1N(CC(N)=O)S(=O)(=O)c1ccc(C)cc1,-3.1%[38.3 µM],-0.7,10.8,5.7,0.4,21.3
Cc1cc(C)c2c(C)nn(-c3ccccc3)c2n1,1.0%,-6.1,-5.0,1.2,-0.3,13.6
COc1ccc(/C=C/CN2CCCC(CCC(=O)NCc3ccc(F)c(F)c3)C2)cc1 (configuration not stated),2.8%,-0.6,-11.6,-15.4,-0.6,-1.1

# Looked up above.
# `CCc1ccc(Nc2oc(C)cc(=O)c2C(C)=O)cc1` @ PINK1 expr mod: -0.8%
# `O=C(Nc1ccc(Cl)cc1Cl)c1cc(S(=O)(=O)N2CCC3(CC2)OCCO3)ccc1F` @ TRPML1 blocker: -18.4

# The results go on:
SMILES,PINK1 expr mod,D2 agonist,TRPML1 blocker,D2 PAM,TRPML1 ag,Six1-Eya2 inh
C=CCn1c(SCC(=O)Nc2ccc(C(=O)OC(C)C)cc2)nnc1-c1cccs1,5.4%,-1.9,-1.8,15.6,0.3,0.1
Cc1noc(C)c1S(=O)(=O)NC(=O)C1(C)CCN1C(=O)Cc1ccc(Cl)cc1Cl (configuration not stated),0.9%,4.5,·,-2.2,-0.2,8.8
COc1ccccc1N1CCN(C2CC(=O)N(c3ccc(F)cc3)C2=O)CC1 (configuration not stated),3.1%,-3.0,11.2,-0.4,0.7,10.7
CCN(CC)c1ccc(C2Nc3cccc4cccc(c34)N2)c(O)c1,-5.7%[38.3 µM],10.0,-12.4,28.6,0.0,-0.6
CC(=O)Nc1nc(-c2ccccc2)nc(-c2ccccc2OC(C)=O)n1,-5.4%[38.3 µM],-0.8,9.8,-10.9,0.4,-3.2
CCNC(=O)N(CC)C[C@H]1N[C@@](Cc2ccccc2)(C(=O)OC)[C@H]2C(=O)N(C)C(=O)[C@@H]12,-0.3%,-1.0,27.8,-1.3,-0.9,-2.5
COc1ccc(NC(=O)c2cc(-c3ccccc3)nc3c2cnn3C(C)C)cc1,7.3%,0.1,3.4,-3.8,-0.2,?
COC(=O)c1c(O)c2ccccc2[nH]c1=O,-1.6%,0.5,-6.7,-0.1,-1.0,2.9
COc1ccc(OCCSc2nnc(CC(=O)Nc3cccc(Cl)c3Cl)n2C)cc1,-1.2%[38.3 µM],1.4,-14.6,5.2,0.9,-5.0
CN1CCN(C(=O)c2cc(Cl)cc(Cl)c2)CC1,-1.2%,-2.4,-12.3,-2.2,0.1,2.4
COc1cccc(CN2CC(C(=O)NCCC3=CCCCC3)CCC2=O)c1 (configuration not stated),-0.4%,0.1,-10.6,-10.8,-0.3,1.9
Nc1cnccc1Oc1cccc(C(F)(F)F)c1,2.0%,-3.9,3.6,-8.8,3.1,1.7
COc1ccc(-c2nc(CN3CCC(C(=O)N4CCOCC4)CC3)c(C)o2)cc1C,-1.6%,3.6,-6.2,-4.8,-0.9,0.9
CC12CC3CC(C)(C1)CC(C(=O)N1CCCC1)(C3)C2,2.2%,5.7,2.3,-5.9,-0.4,1.0
C=C(Br)Cn1cnc2ccccc21,3.0%,0.7,-7.6,-20.6,-0.2,2.6
Cc1ccc(CS(=O)(=O)CCC(=O)NC2CC2)cc1,5.2%[38.3 µM],-1.1,-1.6,-7.1,-0.4,0.5
Cc1ccc(-c2nn(-c3ccccc3)cc2C(=O)Nc2cccc(S(=O)(=O)N3CCOCC3)c2)cc1,3.6%,4.1,-5.2,-1.7,-0.1,-0.8
Cc1nccn1-c1c2c(c(C#N)c3nc4ccccc4n13)CCC2,2.9%,-3.4,12.8,0.7,-0.3,8.2
CCCOC(c1ccccc1)(c1ccccc1)C(Oc1nc(C)cc(C)n1)C(=O)O (configuration not stated),0.8%,-4.5,7.5,-2.8,-0.4,1.9
O=C(CSc1ccc2c(c1)OCCO2)N1CCN(c2ccccc2)CC1,-1.1%,-6.3,-0.2,-1.0,-0.3,-0.1
Cc1cc(C)n2nc(C(=O)OC(C)C(=O)c3cc(C)c(C)cc3C)nc2n1 (configuration not stated),-1.2%,3.2,-6.8,4.7,1.2,7.3
CSc1nsc(SC)c1C(=O)Nc1ccc(C(C)(C)C)cc1,7.4%,-4.9,-8.5,-9.5,-0.8,-2.3
NC(=O)c1c(NC(=O)C2CCCO2)sc2c1CCCC2 (configuration not stated),-0.7%,0.9,0.2,3.4,-0.5,-1.7
Cc1ccc(NC(=O)CN2C(=O)NC3(CCCc4ccccc43)C2=O)c(Cl)c1 (configuration not stated),-3.4%,-1.8,1.5,-7.2,-0.1,-0.6
CCNC(=O)c1cccc(S(=O)(=O)N2CCCCCC2)c1,0.8%,0.4,9.1,1.4,-0.3,2.8
O=C(NCCc1ccc(F)cc1)C(=O)NCC1CCCN1S(=O)(=O)c1cccs1 (configuration not stated),5.2%,0.6,5.7,7.3,1.4,2.5
CC(C)CC(c1nnnn1Cc1ccco1)N1CCN(C2CCCC2)CC1 (configuration not stated),-0.2%,-2.1,4.9,-16.3,0.4,2.4
COc1ccccc1NC(=O)COC(=O)c1ccc(S(=O)(=O)NCc2ccco2)cc1,4.6%,-1.5,-5.5,-7.1,0.4,-13.3
CC(C)CCSc1nc(N2CCOCC2)c2c(c1C#N)CC(C)(C)OC2,26.2%[38.3 µM],-0.9,-8.1,-17.3,6.7,4.5
Cc1nn(C)c2c1c(-c1ccccc1)cc(=O)n2Cc1ccccc1Cl,3.9%,·,8.6,·,2.9,·
O=C(COC(=O)C1CC2C=CC1C2)NCc1ccccc1Cl (configuration not stated),0.3%,-1.0,-12.2,-30.9,-0.1,8.8
CN(C(=O)c1cccc(NC(=O)Cc2ccc(NC(=O)C3CCN(C(=O)CCc4ccccc4)CC3)cc2)c1)C1CC1,-0.1%,2.9,-7.3,·,-0.8,-0.6

# Among those listed so far, these contain an aryl methoxy group.
SMILES,PINK1 expr mod,D2 agonist,TRPML1 blocker,D2 PAM,TRPML1 ag,Six1-Eya2 inh
COCCCNC(=O)Cn1cnc2sc(C)c(S(=O)(=O)N3CCN(c4ccccc4OC)CC3)c2c1=O,-0.8%&-0.2%,-3.2,-9.6&-16.7,-3.5,-0.3&-0.2,7.9
COc1cc2c(cc1[N+](=O)[O-])-c1ccc([N+](=O)[O-])cc1C2=NNC(N)=S,3.2%,12.5,3.5,6.8,-0.7,-72.5*
COc1ccccc1N(CC(N)=O)S(=O)(=O)c1ccc(C)cc1,-3.1%[38.3 µM],-0.7,10.8,5.7,0.4,21.3
COc1ccc(/C=C/CN2CCCC(CCC(=O)NCc3ccc(F)c(F)c3)C2)cc1 (configuration not stated),2.8%,-0.6,-11.6,-15.4,-0.6,-1.1
COc1ccccc1N1CCN(C2CC(=O)N(c3ccc(F)cc3)C2=O)CC1 (configuration not stated),3.1%,-3.0,11.2,-0.4,0.7,10.7
COc1ccc(NC(=O)c2cc(-c3ccccc3)nc3c2cnn3C(C)C)cc1,7.3%,0.1,3.4,-3.8,-0.2,?
COc1ccc(OCCSc2nnc(CC(=O)Nc3cccc(Cl)c3Cl)n2C)cc1,-1.2%[38.3 µM],1.4,-14.6,5.2,0.9,-5.0
COc1cccc(CN2CC(C(=O)NCCC3=CCCCC3)CCC2=O)c1 (configuration not stated),-0.4%,0.1,-10.6,-10.8,-0.3,1.9
COc1ccc(-c2nc(CN3CCC(C(=O)N4CCOCC4)CC3)c(C)o2)cc1C,-1.6%,3.6,-6.2,-4.8,-0.9,0.9
COc1ccccc1NC(=O)COC(=O)c1ccc(S(=O)(=O)NCc2ccco2)cc1,4.6%,-1.5,-5.5,-7.1,0.4,-13.3
